NS1 function inh – influenza NS1 inhibition. actives 0.4% (n = 270,000). S. cerevisiae slowed by influenza A NS1, growth recovery by OD600. Potency, µM (titrated, usually from 46.1 µM), without a hit: at the highest dose activity, positive = more growth; further: actives are rising curves; nearly all actives have a fitted effect of over 50% in size
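In this qHTS, NS1 from influenza A is expressed in budding yeast, where it slows growth. Cells are switched from glucose to 2% galactose medium (pH 6.0, -URA), treated with compound, and growth recovery is read at OD600.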
Cruzain inh noDet – blocks cruzain activity in detergent-free assay; purified cruzain, Z-FR-AMC fluorescence, no detergent; P25779; actives 2.3% (n = 200,000); Potency, µM, without a hit: max response, negative = inhibition, actives largely listed as inhibitors; AID 1476; active means well fitted curve in the direction sought with a large enough effect; inconclusive means small, poorly fitted or top-dose-only effect, or another doubt; inactive means no such curve, though single readings can be large; an effect the other way counts as inactive or inconclusive;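 further: plate controls were enzyme without inhibitor for no effect and buffer without enzyme for full effect; nearly all actives have a fitted effect of over 40% in size; top concentration of the series not given in the record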
Target sequence (P25779 123-467 limits assumed): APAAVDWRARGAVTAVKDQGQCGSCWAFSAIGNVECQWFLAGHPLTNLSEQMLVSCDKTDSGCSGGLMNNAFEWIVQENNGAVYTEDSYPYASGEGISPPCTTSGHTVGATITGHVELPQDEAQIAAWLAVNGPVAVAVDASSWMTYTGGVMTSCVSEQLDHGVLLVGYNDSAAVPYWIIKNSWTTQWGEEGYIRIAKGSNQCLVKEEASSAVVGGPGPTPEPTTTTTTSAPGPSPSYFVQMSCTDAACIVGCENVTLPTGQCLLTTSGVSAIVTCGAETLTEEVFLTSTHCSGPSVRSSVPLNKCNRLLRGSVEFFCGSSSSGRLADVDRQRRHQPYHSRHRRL
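Detergent-free condition (0.00005% Triton X-100) in acetate buffer pH 5.5 with DTT. 1.5 nM enzyme and compound were pre-mixed 15 min, then 2 uM Z-FR-AMC substrate added; reaction progress from fluorescence change between first and third reads (60 s).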
RE007 growth inh – less growth of the S. pombe RE007 Vpr strain. S. pombe RE007 Vpr strain, BacTiter-Glo ATP luminescence, 24 h; control for the full effect not named in the record. Potency, µM (series often up to 92.2 µM), for the others: at the highest dose activity change, negative = less growth. actives 0.21% (n = 360,000); active = well fitted falling curve with a large enough effect; inconclusive = small, poorly fitted or top-dose-only effect; inactive = no such curve, though single readings can be large or run the other way;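 further: on the % scale 0 is the no-effect control and ±100 the full control effect; nearly all actives have a fitted effect of over 50% in size; the assay follows cell death caused by Vpr and the record does not say whether a fall means rescue or toxicity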
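Fission yeast strain RE007, carrying one chromosomally integrated HIV-1 vpr copy, was seeded at OD 0.01 in PMG+AL medium with 23 nL pinned compound. After 24 h at 30 °C and 99% humidity, viability was read by BacTiter-Glo luminescence.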
LASV entry inh – blocks Lassa virus binding to or entry into cells; AID 540256; Lassa virus pseudotype entry inhibition, cell reporter; control for the full effect not named in the record; actives 1.2% (n = 300,000); Potency, µM (doses to about 37.9 µM), for the others: at the top dose activity change, negative = inhibition, actives largely listed as inhibitors; active means well fitted inhibition curve with a large enough effect; inconclusive means small, poorly fitted or top-dose-only effect, or effect the other way; inactive means flat fitted curve, though single readings scatter; tested in HEK293 cells; further: on the % scale 0 is the no-effect control and ±100 the full control effect; nearly all actives have a fitted effect of over 50% in size; luciferase read-out
SARS PLP yeast – inhibitors of SARS-CoV papain-like protease in yeast; S. cerevisiae expressing SARS-CoV PLpro, growth rescue; control for the full effect not named in the record; actives 0.19% (n = 330,000); Potency, µM (series often up to 32.9 µM), for the others: at the highest dose activity, positive = growth rescue; further: 0% is about no effect; nearly all actives have a fitted effect of over 55% in size; growth read by luminescence after 48 h
Marburg entry inh – blocks Marburg virus binding to or entry into cells; Marburg virus pseudotyped entry inhibition, cell reporter; control for the full effect not named in the record; about a third of the inactives were read at about 46 µM; Potency, µM (series often up to 37.8 µM), for inactives: at the top dose activity change, negative = inhibition, hits mostly inhibitors; AID 540276; actives 1.8% (n = 300,000); active = well fitted inhibition curve with a large enough effect; inconclusive = small, poorly fitted or top-dose-only effect, or effect the other way; inactive = flat fitted curve, though single readings scatter; tested in HEK293 cells; about a fifth of its hits are not listed in these tables; further: on the % scale 0 is the no-effect control and ±100 the full control effect; luciferase read-out
Cruzain Triton – blocks cruzain activity in presence of Triton detergent; P25779; purified cruzain, Z-FR-AMC fluorescence, 0.01% Triton; Potency, µM, for inactives: max response, negative = inhibition, most hits filed as inhibitors; actives 0.43% (n = 200,000); AID 1478; active means well fitted curve in the direction sought with a large enough effect; inconclusive means small, poorly fitted or top-dose-only effect, or another doubt; inactive means no such curve, though single readings can be large; an effect the other way counts as inactive or inconclusive;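 further: plate controls were neutral wells for no effect and buffer without enzyme for full effect; nearly all actives have a fitted effect of over 40% in size; top concentration of the series not given in the record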
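Read-out: AMC fluorescence (360 nm excitation, 450 nm emission), four reads over 2 min, first-to-third difference used. Conditions: cruzain 1.5 nM, Z-FR-AMC 2 uM, pH 5.5 acetate, 5 mM DTT, 0.01% Triton X-100.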
StopGo reporter – lowers the luciferase signal of an FMDV 2A StopGo reporter. human cells with a luciferase reporter of 2A StopGo recoding; control for the full effect not named in the record. Potency, µM (doses to about 57.9 µM), for inactives: at the top dose signal change, negative = less light. actives 1.2% (n = 410,000). AID 1159524; active = well fitted falling curve with a large enough effect; inconclusive = small, poorly fitted or top-dose-only effect; inactive = no such curve, though single readings can be large or run the other way; tested in HEK293T cells; further: on the % scale 0 is the no-effect control and ±100 the full control effect; nearly all actives have a fitted effect of over 45% in size; luciferase light after 4 h
* = called active by the depositor; u = inconclusive; x = not tested or not shown; & = joins results of further samples; [ ] = dose if it differs, or a comment. Unless noted, the call rests on the fitted dose curve; in most records, active means well fitted rising curve with a large enough effect; inconclusive means small, poorly fitted or top-dose-only effect; inactive means no such curve, though single readings can be large or run the other way. Potency means the concentration at half of the fitted maximal effect.

mol	NS1 function inh	Cruzain inh noDet	RE007 growth inh	LASV entry inh	SARS PLP yeast	Marburg entry inh	Cruzain Triton	StopGo reporter
CCn1c(SCc2cc(=O)[nH]c3ccccc23)nc2c1c(=O)n(C)c(=O)n2C	9%	x	7%	-21%	x	u	x	13%
O=C(OCn1nnc2ccccc2c1=O)c1cccnc1Cl	-9%	12%	0%	9%	2%	-6%	3.8%	-4%
COc1ccccc1-c1nn2c(=O)cc(CN3CCN(C(=O)/C=C/c4ccccc4)CC3)nc2s1	x	5%	x	u	x	x	-0.9%	-13%
Cc1ccccc1N=C1c2cc([N+](=O)[O-])ccc2-c2ncccc21	0%	16%	-8%	11%	-21%	-9%	-5.5%	0%
COC(=O)c1ccc2c(c1)NC(=O)C(N(CC(C)C)CC(C)C)S2 (stereo not given)	-4%	x	-9%	18%	0%	20%	x	5%
COc1cc(NC(=O)c2ccco2)c(OC)cc1NC(=O)CCC(=O)Nc1cc(C)cc(C)c1	4%	u	-6%	1%	-7%	-22%	-4.0%	-26%
Cc1ccc(CNC(=O)C2CC2c2ccccc2)cc1 (stereo not given)	0%	-5%	x	3%	14%	16%	-2.8%	7%
COc1cccc(C2c3c(oc4cc(C)c(C)cc4c3=O)C(=O)N2CCCN(C)C)c1 (stereo not given)	8%	-9%	0%	x	4%	x	1.3%	-6%
CCC(CO)NCc1ccccc1OC(C)C (stereo not given)	4%	x	20%	x	2%	x	x	-19%
CC(C)OC(=S)N/C(=N\S(=O)(=O)c1ccccc1)c1ccccc1	13%	3%	-1%	-2%	-2%	4%	3.1%	13%

Quoted at random: seven entries already listed
mol	NS1 function inh	Cruzain inh noDet	RE007 growth inh	LASV entry inh	SARS PLP yeast	Marburg entry inh	Cruzain Triton	StopGo reporter
COC(=O)c1ccc2c(c1)NC(=O)C(N(CC(C)C)CC(C)C)S2 (stereo not given)	-4%	x	-9%	18%	0%	20%	x	5%
COc1ccccc1-c1nn2c(=O)cc(CN3CCN(C(=O)/C=C/c4ccccc4)CC3)nc2s1	x	5%	x	u	x	x	-0.9%	-13%
CCC(CO)NCc1ccccc1OC(C)C (stereo not given)	4%	x	20%	x	2%	x	x	-19%
Cc1ccccc1N=C1c2cc([N+](=O)[O-])ccc2-c2ncccc21	0%	16%	-8%	11%	-21%	-9%	-5.5%	0%
CC(C)OC(=S)N/C(=N\S(=O)(=O)c1ccccc1)c1ccccc1	13%	3%	-1%	-2%	-2%	4%	3.1%	13%
Cc1ccc(CNC(=O)C2CC2c2ccccc2)cc1 (stereo not given)	0%	-5%	x	3%	14%	16%	-2.8%	7%
COc1cccc(C2c3c(oc4cc(C)c(C)cc4c3=O)C(=O)N2CCCN(C)C)c1 (stereo not given)	8%	-9%	0%	x	4%	x	1.3%	-6%

(more compounds)
mol	NS1 function inh	Cruzain inh noDet	RE007 growth inh	LASV entry inh	SARS PLP yeast	Marburg entry inh	Cruzain Triton	StopGo reporter
COC(=O)[C@@H]1C[C@@]1(C)[C@@H](NP(=O)(c1ccccc1)c1ccccc1)c1ccccc1	-16%	6%&-1%	8%	-2%	0%	u	0.6%&-4.4%	-13%
CCc1ccccc1NC(=O)CSc1nnc([C@@H](NC(=O)OC(C)(C)C)C(C)C)o1	-3%	-2%	-9%	-12%	7%	-8%	8.1%	-29%
C=C(C)Cn1c(SCC(=O)N/N=C/c2ccccc2)nc2ccccc2c1=O	-5%	-5%	-12%	-15%	-17%	-6%	-3.8%	0%
CC(C)c1nc(SCC(=O)NC2CCCC2)c2ccccc2n1	-2%	x	2%	-22%	-1%	-5%[46.1 µM]	x	u
COc1cccc(NC(=O)c2ccccc2-c2nc(-c3ccc(Cl)cc3)no2)c1	15%	u	-2%	4%	-1%	7%	-0.9%	0%
CCCc1cc2c(=O)c(-c3ccc4c(c3)OCCO4)coc2cc1OC(=O)c1ccco1	-5%	u	-13%	-26%	-3%	u	1.0%	55%[activator]
FC(F)(F)c1cccc(Nc2nc(N3CCCC3)nc(N3CCCC3)n2)c1	0%	x	3%	-14%	0%	u	x	-21%
CCc1ccc(NC(=O)C(=O)NCC(c2cccnc2)N2CCN(C)CC2)cc1 (stereo not given)	x	u	x	u	x	x	-11%	-1%
CC(C)(C)CC(C)(C)c1ccc(OCC(=O)N/N=C/c2ccc(S(=O)(=O)O)o2)cc1	u	x	-9%	u	1%	u	x	3%
O=C(c1cccc([N+](=O)[O-])c1)N1CCN(C/C=C/c2ccccc2)CC1	2%	x	-6%	-11%	0%	13%[46.1 µM]	x	-27%
Cc1cc(S(=O)(=O)NCCCn2ccnc2)c(C)cc1Cl	9%	x	-13%	5%[46.1 µM]	-4%	-12%[46.1 µM]	x	27%
CCCOC(=O)c1c(NC(=O)/C=C/c2cnn(C)c2C)sc(C(=O)OCC)c1C	11%	17%	15%	-1%	-23%	-3%	-3.8%	31%[activator]
C/C(=N\NC(=O)C1(C)CC1(Br)Br)c1cccc(NC(=O)C(C)(C)C)c1 (stereo not given)	8%	19%	2%	-14%	27%	u	0.9%	-12%
CCOc1ccccc1CN1CCNC(=O)C1CC(=O)N(C)CCc1cnn(C)c1 (stereo not given)	-3%	x	-9%	x	-2%	x	x	-17%
S=C(N/N=C/c1cccc2ccccc12)Nc1cccc(Cl)c1	u	x	6%	u	1%	u	x	-15%
O=C(OCC(=O)N(CCc1ccccc1)Cc1ccccc1)c1ccccc1O	x	x	-14%	-15%	-1%	11%	x	-7%
CCC(=O)Nc1nnc(SCc2ccc(F)cc2)s1	5%	u	-1%	6%	-19%	0%	0.3%	2%
O=C(NCc1ccco1)c1nc2c(nnn2Cc2cccc(Cl)c2)c(=O)[nH]1	3%	-4%	-12%	14%	-1%	2%	-0.4%	x
CCCc1[nH]n(-c2ccc([N+](=O)[O-])cc2)c(=O)c1C=NCCc1ccc(OC)c(OC)c1	2%	x	-2%	x	0%	x	x	-5%
O=C1CC(c2ccc3c(c2)OCO3)C2=C(CCCC2=O)N1 (stereo not given)	-2%	-2%	7%	-14%	-2%	-1%[46.1 µM]	-0.3%	-13%
CCOC(=O)c1c(C)[nH]c(C)c1C(=O)CSc1nnc(-c2ccc(OC(F)F)cc2)o1	-49%	-8%	4%	u	2%	u	-5.8%	u
O=C(Cc1n[nH]c(=O)c2ccccc12)NCc1ccccc1	x	x	-4%	7%	-1%	23%[46.1 µM]	x	-1%
Cc1ccc(S(=O)(=O)N2CCOCC2)cc1C(=O)Nc1ccccc1N1CCCC1	x	x	8%	-6%	-2%	2%	x	-7%
CN1CCN(C(CNS(=O)(=O)c2ccc([N+](=O)[O-])cc2)c2ccc(F)cc2)CC1 (stereo not given)	x	x	4%	15%	-4%	u	x	-12%
O=C(Nc1ccccc1O)c1ccccc1O	-193%	4%	-21%	u	-18%	u	-1.9%	-20%
COc1ccc(/C=N/NC(=O)c2cccnc2)cc1CN1CCc2ccccc2C1	-2%	x	0%	-18%	0%	u	x	-9%
COc1cc(C(=O)Nc2cccc3ncccc23)cc(OC)c1OC	3%	-2%	-7%	17%	14%	-17%[46.1 µM]	0.0%	0%
CCC(=O)Nc1ccc(S(=O)(=O)NCc2cccn2Cc2cccc(C)c2)cc1	x	6%	x	u	x	x	-6.9%	13%
CC(=O)NC(=S)Nc1ccccc1N1CCN(C(=O)c2ccccc2)CC1	3%	x	3%	-11%[46.1 µM]	-1%	u	x	-20%
COc1ccc([N+](=O)[O-])cc1NC(=O)c1ccc(Br)s1	x	x	-5%	10%	-2%	2%	x	-13%
Cc1ccc(C2Nc3cccc4cccc(c34)N2)cc1	-3%	x	12%	u	3%	1%[46.1 µM]	x	5%
Cc1cccn2cc(-c3ccc4c(c3)NC(=O)CO4)nc12	-3%	x	-18%	u	-1%	0%	x	26%
Cc1ccc(NCc2nnc(SCC(=O)Nc3ccccc3)n2CC2CCCO2)c(C)c1 (stereo not given)	1%	u	-9%	1%	0%	0%&0%	1.3%	-8%
COC(=O)C1=C(C(=O)OC)[C@@H]2N(C)c3ccccc3[C@@]23C[C@@H](C(=O)OC)N(C(=O)COCc2ccccc2)C3=N1	-10%	x	7%	x	0%	x	x	-16%
COc1ccc(N(CC(=O)Nc2ccc(C)cc2C)S(=O)(=O)c2c(C)n[nH]c2C)cc1	-2%	x	1%	u	1%	u	x	-4%
Cc1cc(NC(=O)c2cccc(F)c2)ncc1NC(=O)c1ccco1	-13%	-1%	-16%	4%	-6%	u	1.6%	-5%
COc1ccccc1NC(=O)C(=O)Nc1ccccn1	-36%	-14%	-6%	u	0%	u	-0.9%	x
CCn1c(SCC(=O)Nc2ccc(NC(C)=O)cc2)nnc1C1CC1	-7%	-6%	-4%	1%	-3%	2%[46.1 µM]	2.5%	u
O=C(CNCc1ccc(Cl)cc1)NCc1ccco1	-8%	-1%	-9%	3%	-7%	6%	-2.6%	-9%
Nn1c(Cc2cccc3ccccc23)nnc1SCC(=O)N1CC(=O)Nc2ccccc21	-9%	-6%	-3%	-13%	13%	-1%	-1.7%	-11%
CCOc1ccc(-c2cn3nc(CC(C)C)sc3n2)cc1	x	-14%	x	u	x	u	-3.6%	32%[activator]
CN(C)CCNc1ncnc2c1cnn2-c1ccc(Cl)cc1	7%	9%	-14%	x	-1%	x	0.0%	-4%
O=C(NC1CCS(=O)(=O)C1)c1ccc(S(=O)(=O)N2CCCCC2)cc1 (stereo not given)	1%	x	4%	4%	7%	-11%[46.1 µM]	x	-25%
O=C(NCCN1CCCC1)c1ccc(Cl)cc1Cl	0%	x	5%	18%	0%	0%	x	20%
O=C(Oc1cccc(F)c1)c1ccc2c(=O)n3c(nc2c1)CCC3	x	x	-15%	-2%	6%	9%	x	2%
